# High-throughput results (PubChem BioAssay)
# Mtb hypoxia inh: inhibitors of hypoxia-regulated fluorescent reporter in Mycobacterium tuberculosis. 0.1% of 300,000 active. fluorescence inhibition, % (test concentration not listed). M. tuberculosis hypoxia-regulated fluorescent reporter, fluorescence;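 active means 35 to 45% if threefold the growth effect, above 45% if 1.5-fold the growth effect; inactive means the rest, general growth blockers included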;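 further: wells of about 50 µL received 100 nL stock; 0% = vehicle wells and 100% = reference inhibitor wells; whole bacteria with a GFP reporter of the hypoxia response; strong numbers were not always called active; many hits fall short of the cut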
# Bead autofluor: counter-screen for toxin protease inhibitors: compound fluorescence; compound autofluorescence counterscreen, microsphere flow cytometry; active compounds read high; fluorescence intensity (test concentration not listed); 3.1% of 360,000 active; AID 624483;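 active means at least 3 SD above the mean of all compounds, about 16000 in these data; inconclusive means too few beads counted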;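 further: 100 nL of 1 mM stock went into each well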
# Sa RN4220 lethal: S. aureus RN4220 growth inhibition; OD600, 16 h; inhibition, % (no concentration beside the values); 0.33% of 330,000 active; AID 1259311;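 active means z-score of -3 or lower and OD600 up to 0.18 on both plates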;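 further: plate controls were untreated cells for no effect and reference antibiotic for full effect; stock transfer was 100 nL into about 80 µL; one replicate is shown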
# PrP UTR inh: inhibition of PrP 5' UTR reporter expression; inhibition, % (test concentration not listed); 0.35% of 340,000 active; cell-based PrP 5' UTR mRNA reporter, plate reader; AID 488862;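 active means every replicate at 50% or more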;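 further: 0 = median of the neutral control wells; tested in H4 reporter cells; numbers are from one replicate; inactives centre near -14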
# Sa ugtP lethal: kills S. aureus RN4220 lacking UgtP. S. aureus RN4220 ugtP deletion, OD600 growth, 16 h; some inactives read as strong as hits. growth inhibition, % (test concentration not listed). 0.54% of 330,000 active. AID 1259309;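 active means z-score under -3 and OD600 up to 0.15 on both plates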;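 further: plate controls were untreated wells for no effect and antibiotic for full effect; wells of about 80 µL received 100 nL stock; the first replicate is given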
# BJeLR viability: BJeLR cell viability loss. BJeLR (HRASV12) viability, CellTiter-Glo ATP luminescence, 48 h; reference of the scale not given here. inhibition, % (no concentration beside the values). 0.17% of 300,000 active. AID 1554;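 active means replicate mean above 50%; inconclusive means above 50% but judged a plate artefact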;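 further: 50 nL library stock added to about 25 µL; numbers are from one replicate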
# Mtb hypoxia inh growth: second read-out of Mtb hypoxia inh, no call of its own (marks repeat the call); growth inhibition, %; measured here: M. tuberculosis growth (absorbance);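 0% = vehicle and 100% = reference antibiotic; read after six days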
# * marks the source's active call; other numbers are inactive results; ? = inconclusive; nt = no result given; & = joins results of further samples.
SMILES,Mtb hypoxia inh,Mtb hypoxia inh growth,Bead autofluor,Sa RN4220 lethal,PrP UTR inh,Sa ugtP lethal,BJeLR viability
CCOc1ccc(NC(=O)C(Cc2ccccc2)NC(=O)C2CCCCC2)cc1 (stereo not drawn),-7,2,9264,0.4,-8,1,-5
COc1ccc2oc(=N)c(C(=O)Nc3ccc(Cl)cc3)cc2c1,-8,4,3579,4.8,-22,0,-2
COC(=O)c1ccc(-c2sc3nc(N4CCOCC4)c4c(c3c2N)CCCC4)o1,10,5,nt,1.7,nt,11,-6
O=C1Nc2ccc(Cl)cc2C12OCCCO2,14,2,4202,3.2,-19,9,3
Cc1c(C(=O)OCc2ccccc2)nnn1-c1nonc1N,6,10,2489,-1.8,-16,3,7
CCOc1cc(N2CCOCC2)c(OCC)cc1NC1=NCCCCC1,4,3,2357,4.5,-20,0,9
O=C(CSc1ccc(-c2ccncc2)nn1)N1CCN(c2ccccc2)CC1,13,8,3915,9.1,-14,7,10
Cc1cc(C)cc(NC(=O)CSc2cc(C(=O)c3nccn3C)c3ccccc3n2)c1,8,4,2454,4.2,1,2,-15
CCOP(=O)(OCC)C(NC(=O)c1ccc(C)cc1)C(Cl)(Cl)Cl (stereo not drawn),1,2,2286,3.1,-22,1,-2
COc1cccc(N2CCN(C(=O)CCS(=O)(=O)c3ccc4c(c3)oc(=O)n4C)CC2)c1,13,0,5852,1.1,7,4,-3

# The final 2 entries of the part above come first, to join the parts.
SMILES,Mtb hypoxia inh,Mtb hypoxia inh growth,Bead autofluor,Sa RN4220 lethal,PrP UTR inh,Sa ugtP lethal,BJeLR viability
CCOP(=O)(OCC)C(NC(=O)c1ccc(C)cc1)C(Cl)(Cl)Cl (stereo not drawn),1,2,2286,3.1,-22,1,-2
COc1cccc(N2CCN(C(=O)CCS(=O)(=O)c3ccc4c(c3)oc(=O)n4C)CC2)c1,13,0,5852,1.1,7,4,-3
CC1=[N+]([O-])C2(N)CCc3nonc3C2(O)C1 (stereo not drawn),5,5,4353,-3.1,-3,-3,-5
Cc1ccc(CN(C)C(=O)C2CCN(C(=O)Nc3ccccc3)CC2)o1,5,-7,nt,2.1,-19,8,nt
COc1ccccc1C(=O)OCCCN=C1NS(=O)(=O)c2ccccc21,2,-3,4732,5.5,-7,6,1
Cc1ccc(/C=C/C(=O)Nc2ccncc2)o1,5,-6,2020,-2.2,-20,8,-13
Clc1cccc(Cl)c1CSc1nnc(/C=C/c2ccccc2)o1,nt,nt,3003,1.7,-15,2,8
O=C(CNC(=O)c1ccc2ccccc2c1)NCc1ccccc1F,5,3,5327,5.4,0,-7,-2
COc1cc(C=NNc2nc3ccccc3s2)cc([N+](=O)[O-])c1O,2,2,nt,8.3,nt,7,nt
COCCCn1c(SCC(=O)Nc2ccc(C(C)=O)cc2)nc2ccccc2c1=O,16,15,?,-0.4,-42,7,1
O=[N+]([O-])c1ccccc1/C=N/N1CCN(c2ccccn2)CC1,nt,nt,3797,nt,-39,nt,1
O=C(COC(=O)c1ccc(-c2ccc([N+](=O)[O-])cc2)o1)NC(=O)NC12CC3CC(CC(C3)C1)C2,4,5,2506,2.0,-8,-26,5
O=c1[nH]c2ccccc2cc1-c1nnn(-c2ccccc2)n1,5,4,4071,5.1,-6,3,-6
COc1cc(C(=O)Nc2ccc(NC(=O)C3CCCCC3)nc2)cc(OC)c1OC,-14,3,5348,-0.9,1,0,-6
CCN(CC(=O)NC(C)C)C(=O)[C@@H](NC(=O)c1ccco1)C(C)C,-4,-6,4573,3.2,2,3,0
Cc1noc(C)c1C(=O)OCC(=O)/C=C1\N(C)c2ccccc2C1(C)C,18,11,23213*,4.3,-7,-7,5
COc1ccc(N2CCOCC2)c(NC(=O)c2ccco2)c1,4,-2,2960,5.6,-4,0,11
Cc1cc(C(=O)COC(=O)c2cccc(NS(C)(=O)=O)c2)c(C)n1CC1CCCO1 (stereo not drawn),-6,7,8254,-1.0,42,-2,nt
CC(=CC(NP(=O)(c1ccccc1)c1ccccc1)c1ccccc1)CO[Si](c1ccccc1)(c1ccccc1)C(C)(C)C (stereo not drawn),8,6,nt,4.1,nt,3,nt
CCOc1ccc(NS(=O)(=O)c2ccc3[nH]c(=O)oc3c2)cc1,8,-3,6066,-1.9,-11,6,-1
Cc1cccc(OCC(=O)O/N=C(\N)Cc2ccc(Cl)cc2)c1,nt,nt,3632,-1.9,-26,8,4
CC(=O)c1ccc(NC(=O)CCc2c(C)nc3ncnn3c2C)cc1,6,-1,5617,-1.7,-38,4,5
CC(C)[C@H](Nc1ccc(C(F)(F)F)cc1[N+](=O)[O-])C(=O)O,14,0,4451,13,nt,8,4
O=C(Nc1ccnn1C1CCN(C(=O)c2ccc(Cl)c(F)c2)CC1)C1CCOC1 (stereo not drawn),15,1,6919,3.3,-9,0,-9
Cc1ccc(S(N)(=O)=O)cc1,-2,-5,4326,6.3,-4,12,nt
CCOc1ccc2ccccc2c1C=NNC(=O)CNC(=O)c1ccccc1F,-1,-4,nt,5.3,nt,13,nt
Cc1ccc(NC(=O)c2cncc(Br)c2)nc1,-8,-2,4517,2.0,-60,3,12
O=C(Nc1ccccc1)c1cccnc1Nc1ccccc1,5,1,2545,11,-10,26,-5
COc1ccc(C(=O)NCCSCc2ccc(Cl)cc2)cc1OC,21,8,nt,-1.4,-18,8,-8
Cc1ccc(OCC(=O)NNC(=O)Nc2ccc(Cl)cc2)c(Br)c1,6,9,5533,2.9,-23,-1,12
COc1ccccc1C(=O)NC(=O)COC(=O)c1ccc(Cl)cc1[N+](=O)[O-],9,2,4390,5.1,-12,4,11
COC(=O)C1=C(c2cccc(OCc3ccccc3)c2)CC2CCC1N2C(=O)NCCc1ccc(F)cc1 (stereo not drawn),11,-4,nt,-11,nt,7,nt
O=C(NC1CC1)C1=CC(c2csc3ccccc23)CC(OCCCCO)O1 (stereo not drawn),9&1,-2&4,nt,6.3&2.1,nt,4&-1,nt
CCOC(=O)c1c(C)nn(-c2ccc(NC(=O)CSCC(=O)O)cc2)c1C,-7,4,4216,1.3,9,2,1
CCN1CCN(c2ccc(S(=O)(=O)N3CCOCC3)cc2NC(=O)COc2ccc(F)cc2Cl)CC1,-7,1,6052,-3.5,-21,-6,0
O=C(CN1CCC(NC(=O)Nc2ccccc2)CC1)Nc1ccc([N+](=O)[O-])cc1,5,14,3705,1.1,-15,4,0
O=C(OC(C(=O)NCc1ccc2c(c1)OCO2)c1ccccc1F)c1ccco1 (stereo not drawn),14,14,3874,2.3,-25,5,-5
COc1ccc2oc(C(=O)OCC(=O)N3CCN(C(C)=O)CC3)c(C)c2c1,-9,-3,5984,-1.5,-25,3,-3
Cn1nnc(NC(=O)c2cccs2)n1,4,6,4275,2.2,-19,0,-8
Cc1ccc(CNC(=O)CC(NC(=O)c2ccccc2)c2ccccc2)cc1 (stereo not drawn),3,1,3917,2.1,-11,-1,nt
CCOC(=O)C1CCN(C(=O)COc2ccc(C(=O)c3ccccc3)cc2)CC1,-3,-2,3482,0.8,nt,0,nt
CC1CC(C)CN(C(=O)Cn2nnc(-c3ccc(Br)cc3)n2)C1 (stereo not drawn),12,0,2799,5.6,-32,7,5
O=S(=O)(Nc1cccc(-n2cnnn2)c1)c1ccccc1C(F)(F)F,10,6,5431,4.7,-24,5,-1
CCOc1ccc(/C=C(\C#N)C(=O)NCC2CCCO2)cc1OCC (stereo not drawn),4,3,9974,4.1,7,13,-7
CCOc1ccc(C(=O)NCC2CCN(CC3CCCCC3)CC2)cc1,12,7,5897,3.6,-4,9,-3
COC(=O)N/N=C/c1cc(N=Nc2ccccc2Cl)ccc1O,nt,nt,3962,nt,8,nt,-4
Clc1c(-c2nnc3n2CCCCC3)sc2ccccc12,13,8,2792,-3.6,-4,-6,2
N#Cc1c(Cc2cccc3ccccc23)nn(CCO)c1N,5,6,3070,4.9,-6,4,-4
Cc1c(Cl)cccc1NC(=O)NCc1ccc(F)cc1,13,7,2068,-1.5,-16,3,-4
CC1(C)C=C(c2ccc(C=O)s2)CC(C)(C)N1,nt,nt,4534,0.0,-62,-1,4
Cc1nc2c(sc(=S)n2Cc2ccco2)c(=O)n1CC(=O)Nc1ccccc1,-6,-2,5388,-18,-11,0,-1
CC(=C/c1ccccc1)/C=N/n1c(-c2ccncc2)n[nH]c1=S,nt,nt,4473,nt,26,nt,1
# Later entries:
SMILES,Mtb hypoxia inh,Mtb hypoxia inh growth,Bead autofluor,Sa RN4220 lethal,PrP UTR inh,Sa ugtP lethal,BJeLR viability
C=CCNC(=O)COc1c(C)ccc(C)c1C,7,20,3924,7.0,10,6,-9
CCC(C)(C)c1nnc(NC(=O)c2cccc([N+](=O)[O-])c2)s1,-3,3,2182,6.7,-54,0,2
Cn1nccc1C(=O)OCC(=O)Nc1cccc(Cl)c1,-12,-6,2808,2.1,1,-9,nt
COc1ccc(NC(=O)C2CCC(CNc3c(N4CCOCC4)c(=O)c3=O)CC2)cc1Cl (stereo not drawn),8,6,5133,2.8,-23,11,12
CC(=NNc1cccc([N+](=O)[O-])c1)c1cc2ccccc2o1,6,7,nt,-14,nt,-6,nt
CCCCn1c(N)c(N(CC(C)C)C(=O)Cn2c(=O)oc3ccccc32)c(=O)[nH]c1=O,9,1,?,0.4,-13,5,5
Cc1cc(OCC(=O)OCC(=O)NCc2ccco2)ccc1Cl,-4,-1,?,4.6,-19,9,-1
Cc1ccc(S(=O)(=O)n2nc(OC(=O)c3ccccc3C)cc2N)cc1,-10,8,3521,3.3,-9,3,-10
COc1ccc(/C=c2\s/c(=C/C(=O)c3ccc(C)cc3)[nH]c2=O)c(OC)c1,nt,nt,2696,nt,-19,nt,-3
O=C(NCC1CCCO1)C(=O)NN=Cc1ccccc1C(=O)O (stereo not drawn),2,11,nt,31,nt,-6,nt
COc1ccc(-c2ccc(SCC(=O)c3cccs3)nn2)cc1OC,-6,1,3055,-14,-11,10,1
COc1ccc2[nH]c3c(=O)n(CCCC(=O)NC4CCCCC4C)c(=S)[nH]c3c2c1 (stereo not drawn),nt,nt,5042,nt,-29,nt,1
Cc1cccc(/C=C/C(=O)c2ccc(N3CCOCC3)cc2)c1,11,10,nt,2.5,nt,-4,-4
O=C(N/N=C/c1cc(Br)c(Br)o1)c1cccnc1,nt,nt,2171,nt,-16,nt,3
CSc1ncc2[nH]c(C(O)c3ccccc3)nc2n1 (stereo not drawn),5,10,3618,2.1,-26,0,nt
Cc1ccc(N2CN(Cc3ccco3)CNC2=S)c(C)c1,2,6,2634,-2.1,0,4,-9
Cc1cc(C(=O)N/N=C/c2ccc[nH]2)n[nH]1,nt,nt,2491,nt,-40,nt,2
CC(NC(=O)c1nc[nH]c1C(=O)NCc1ccc(CNC(=O)OC(C)(C)C)cc1)c1ccccc1 (stereo not drawn),-5&8,5&11,nt,0.1&6.8,nt,-1&-7,nt
COc1ccc(C(=O)N2CCc3ccc(NC(=O)c4ccccn4)cc3C2)cc1F,-2,6,5582,0.4,-67,0,3
O=C(NC1CCCC1)C1CCC(CNS(=O)(=O)c2ccc(F)cc2)CC1 (stereo not drawn),-19,-4,5421,0.2,-7,2,-9
Cn1cc(CNC(=O)C2CCC(=O)N(Cc3cccc(C(F)(F)F)c3)C2)cn1 (stereo not drawn),-4,-6,6215,-2.7,-8,-4,-3
CC(C)(C)NC(=O)COC(=O)c1cncc(Br)c1,nt,nt,2340,-0.6,-18,-6,0
O=C(c1ccc2c(c1)OCCO2)N1CCN(Cc2c(F)cccc2Cl)CC1,7,13,3936,1.4,-29,-2,nt
CCCSCCCNC(=O)CN1C(=O)COc2ccc(S(=O)(=O)N3CCCC3)cc21,15,12,5738,2.1,-13,4,8
COc1ccc(N(CC(=O)Nc2ccc(Cc3ccncc3)cc2)S(=O)(=O)c2ccccc2)cc1,-5,-1,3177,2.8,-7,4,3
O=C(O)CC(C(=O)Nc1ccc(F)cc1)C1CCCO1 (stereo not drawn),-9,2,3899,4.4,-28,10,-5
S=C(NCc1ccncc1)Nc1ccc(Cl)c(Cl)c1,-1,0,2433,-6.0,-9,-6,-20

# Profiles, quoted from the list:
# Entry for S=C(NCc1ccncc1)Nc1ccc(Cl)c(Cl)c1 : Mtb hypoxia inh: -1; Mtb hypoxia inh growth: 0; Bead autofluor: 2433; Sa RN4220 lethal: -6.0; PrP UTR inh: -9; Sa ugtP lethal: -6; BJeLR viability: -20
# Entry for O=C(O)CC(C(=O)Nc1ccc(F)cc1)C1CCCO1 (stereo not drawn) : Mtb hypoxia inh: -9; Mtb hypoxia inh growth: 2; Bead autofluor: 3899; Sa RN4220 lethal: 4.4; PrP UTR inh: -28; Sa ugtP lethal: 10; BJeLR viability: -5
